AF4-AF9 inh: blocks AF4 peptide binding to human AF9; inhibition, % at 10 µM; P42568; AlphaScreen, biotin-AF4 peptide binding to FLAG-AF9; 350,000 tested, 0.47% active;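 active means every replicate reaching a set inhibition limit, whatever the replicate mean, cut at about 25% in these data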;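 further: 0% = plate neutral control median and 100% = total signal loss; the record names both 10 and 1 µM as test concentration; the first replicate is given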
Target sequence (P42568 whole entry, looked up): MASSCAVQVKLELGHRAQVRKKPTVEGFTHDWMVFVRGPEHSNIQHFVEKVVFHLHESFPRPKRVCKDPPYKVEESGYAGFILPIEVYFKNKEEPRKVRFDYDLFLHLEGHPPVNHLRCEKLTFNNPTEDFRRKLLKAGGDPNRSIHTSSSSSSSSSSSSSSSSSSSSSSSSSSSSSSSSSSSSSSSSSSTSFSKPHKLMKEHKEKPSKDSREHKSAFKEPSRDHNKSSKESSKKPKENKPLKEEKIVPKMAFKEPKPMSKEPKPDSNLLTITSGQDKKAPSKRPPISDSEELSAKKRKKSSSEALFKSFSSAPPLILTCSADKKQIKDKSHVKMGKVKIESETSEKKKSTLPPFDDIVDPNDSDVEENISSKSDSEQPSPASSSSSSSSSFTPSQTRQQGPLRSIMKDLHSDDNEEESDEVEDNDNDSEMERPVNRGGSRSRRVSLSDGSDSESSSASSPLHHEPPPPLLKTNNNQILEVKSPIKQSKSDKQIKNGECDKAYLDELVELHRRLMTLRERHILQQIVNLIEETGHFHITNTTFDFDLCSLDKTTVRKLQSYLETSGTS
FGF22 binding: binders of recombinant human FGF22 by thermal shift; AID 651658; calls only at 9.99 µM; Q9HCT0; SYPRO orange fluorescence; percent of sucrose octasulfate shift, DMSO zero; 340,000 tested, 1.5% active;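 active means melting point raised past a set limit in the mean and every replicate; three in four hits are not shown here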
Target sequence (Q9HCT0 whole entry, looked up): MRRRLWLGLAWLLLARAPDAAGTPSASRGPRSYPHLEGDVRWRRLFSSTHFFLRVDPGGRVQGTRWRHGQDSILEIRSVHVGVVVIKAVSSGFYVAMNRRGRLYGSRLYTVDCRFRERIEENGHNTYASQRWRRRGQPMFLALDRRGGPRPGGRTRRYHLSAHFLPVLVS
* = called active by the depositor; i = inactive.

canonical_smiles	AF4-AF9 inh	FGF22 binding
CCC(=O)N(C)C[C@@H]1Oc2ncc(/C=C/c3ccccc3)cc2C(=O)N([C@@H](C)CO)C[C@@H]1C	-0.5	i
CO[C@H]1CN(C)C(=O)c2ccc(NC(C)=O)cc2OC[C@H](C)N(CC2CCCCC2)C[C@@H]1C	-1.3	i
C[C@@H](NC(=O)[C@H]1N[C@H]2c3ccc(-c4cncnc4)c(=O)n3C[C@H]2[C@@H]1CO)c1ccccc1	-1.1	i
C[C@@H]1CN([C@H](C)CO)C(=O)c2cc(NC(=O)CCC(F)(F)F)ccc2O[C@@H](C)CCCCO[C@@H]1CN(C)S(=O)(=O)c1cn(C)cn1	-1.9	i
C[C@H](O)C#Cc1cnc2c(c1)C(=O)N([C@H](C)CO)C[C@H](C)[C@H](CN(C)C(=O)c1ccccc1F)O2	0.9	i
C[C@@H]1CN([C@H](C)CO)C(=O)c2cc(-c3ccccc3)cnc2O[C@H]1CN(C)C(=O)C1CCOCC1	-0.3	i
Cc1noc(C)c1S(=O)(=O)Nc1ccc2c(c1)C(=O)N([C@@H](C)CO)C[C@@H](C)[C@H](CN(C)C(=O)Nc1ccc(F)cc1)OCCCC[C@H](C)O2	-2.7	i
Cc1noc(C)c1S(=O)(=O)N(C)C[C@@H]1Oc2ccc(NS(=O)(=O)c3cn(C)cn3)cc2CC(=O)N([C@@H](C)CO)C[C@H]1C	0.1	i
CN1C(=O)c2cc(NC(=O)Cc3cccs3)ccc2OC[C@@H]2O[C@H](CC(=O)O)CC[C@H]21	0.4	i
C[C@H](CO)N1C[C@H](C)[C@H](CN(C)Cc2ccccc2)Oc2ccc(NS(=O)(=O)c3ccccc3)cc2CC1=O	4.0	i
O=C(C[C@@H]1CC[C@@H]2[C@H](COC[C@@H](O)CN2S(=O)(=O)c2cccc(F)c2)O1)NCCCN1CCOCC1	-1.6	i
O=C(C[C@H]1CC[C@H](NC(=O)Cc2cccnc2)[C@@H](CO)O1)NCc1ccc2c(c1)OCO2	-12.0	i
O=C(c1cccnc1)N1CC(=O)N2[C@@H](CO)[C@H](c3ccc(C#CCC4CCCC4)cc3)[C@@H]2C1	-0.4	i
C[C@H](NC(=O)C[C@H]1CC[C@@H](NC(=O)C2CC2)[C@@H](CO)O1)c1ccccc1	-0.2	i
COc1ccc(S(=O)(=O)Nc2ccc3c(c2)C(=O)N([C@H](C)CO)C[C@H](C)[C@H](CN(C)Cc2ccc(Cl)c(Cl)c2)O3)cc1	-1.3	i
Cc1ccc(S(=O)(=O)Nc2ccc3c(c2)C(=O)N([C@@H](C)CO)C[C@H](C)[C@H](CN(C)CC2CCCCC2)O3)cc1	-4.4	i
COc1ccc(C#Cc2ccc3c(c2)[C@]2(C(=O)N3)[C@H](C(N)=O)[C@H]3C(=O)O[C@H](c4ccccc4)[C@H](c4ccccc4)N3[C@@H]2c2ccc(OCCO)cc2)cc1	-1.3	i
COc1cccc(CNC(=O)C[C@H]2C=C[C@H](NC(=O)C3CCOCC3)[C@H](CO)O2)c1	-0.6	i
C[C@@H]1CCCCO[C@H](CN(C)S(=O)(=O)c2ccc(Cl)cc2)[C@@H](C)CN([C@@H](C)CO)C(=O)c2cc(NC(=O)Nc3ccccc3)ccc2O1	-0.4	i
C[C@@H]1CN([C@H](C)CO)C(=O)Cc2cc(NC(=O)c3ccncc3)ccc2O[C@@H]1CN(C)C(=O)Nc1ccc(C(F)(F)F)cc1	-1.6	i
Cc1ccc(S(=O)(=O)N[C@@H]2C=C[C@H](CC(=O)NCc3ccncn3)O[C@@H]2CO)cc1	-3.7	i
CCCN1[C@@H]2Cn3c(cccc3=O)[C@H]1[C@@H](C(=O)NC1Cc3ccccc3C1)[C@@H]2CO	1.4	i
C[C@H](NC(=O)[C@@H]1[C@@H](CO)[C@@H]2Cn3c(cccc3=O)[C@@H]2N1CC1CCCC1)c1ccccc1	-15.5	i
O=S(=O)(Cc1ccccc1)NCC[C@@H]1CC[C@@H](NS(=O)(=O)c2ccccc2)[C@@H](CO)O1	-0.2	i
N#C[C@@H]1[C@H](c2ccccc2)[C@H](CO)N1C(=O)c1ccccc1F	-1.6	i
COc1ccc(S(=O)(=O)Nc2ccc3c(c2)C(=O)N([C@H](C)CO)C[C@@H](C)[C@H](CN(C)S(C)(=O)=O)OCCCC[C@@H](C)O3)cc1	-3.3	i
C[C@H](CO)N1C[C@H](C)[C@H](CN(C)C(=O)Nc2ccc(C(F)(F)F)cc2)Oc2c(NS(=O)(=O)c3ccccc3)cccc2C1=O	0.3	i
COc1cccc(-c2ccc3c(c2)[C@@H]2[C@@H](CCN2C(=O)c2cccc(F)c2)[C@H](CO)N3)c1	0.7	i
O=C(C[C@H]1CC[C@@H]2[C@H](COC[C@H](O)CN2C(=O)Nc2ccc(C(F)(F)F)cc2)O1)NC1Cc2ccccc2C1	-2.9	i
C[C@@H]1CN([C@H](C)CO)S(=O)(=O)c2ccc(-c3cccc(C#N)c3)cc2O[C@H]1CN(C)C(=O)c1ccccc1	-0.1	i
CN(C[C@@H]1[C@@H](c2ccccc2)[C@@H](CO)N1Cc1ccccn1)S(C)(=O)=O	-3.0	i
C/C=C/c1cnc2c(c1)C(=O)N([C@@H](C)CO)C[C@H](C)[C@H](CN(C)Cc1ccc(F)cc1)O2	-5.3	i

Looked up above.
`COc1cccc(-c2ccc3c(c2)[C@@H]2[C@@H](CCN2C(=O)c2cccc(F)c2)[C@H](CO)N3)c1` in AF4-AF9 inh → 0.7
`COc1ccc(S(=O)(=O)Nc2ccc3c(c2)C(=O)N([C@H](C)CO)C[C@@H](C)[C@H](CN(C)S(C)(=O)=O)OCCCC[C@@H](C)O3)cc1` in AF4-AF9 inh → -3.3
`N#C[C@@H]1[C@H](c2ccccc2)[C@H](CO)N1C(=O)c1ccccc1F` in AF4-AF9 inh → -1.6

Next section
canonical_smiles	AF4-AF9 inh	FGF22 binding
O=C(C[C@H]1CC[C@H]2[C@@H](COC[C@H](O)CN2Cc2cccc(C(F)(F)F)c2)O1)NCc1ccccc1	-0.8	i
COCC(=O)N[C@H]1CC[C@H](CC(=O)N2CCCCC2)O[C@H]1CO	-6.9	i
C[C@@H]1CN([C@@H](C)CO)C(=O)c2cccc(NS(=O)(=O)c3cccs3)c2O[C@@H]1CN(C)S(C)(=O)=O	-3.0	i
CCC(=O)N(C)C[C@@H]1Oc2ncc(C#CCC(C)C)cc2C(=O)N([C@H](C)CO)C[C@@H]1C	-4.9	i
C[C@H]1CN([C@@H](C)CO)C(=O)c2cccc(NS(=O)(=O)c3ccccc3)c2O[C@H]1CN(C)C	-0.8	i
C[C@@H]1CCCCO[C@H](CN(C)S(=O)(=O)c2ccc(F)cc2)[C@H](C)CN([C@H](C)CO)C(=O)c2cc(NC(=O)NC3CCCCC3)ccc2O1	-0.2	i
C[C@@H]1CN([C@H](C)CO)S(=O)(=O)c2ccc(Br)cc2O[C@H]1CN(C)S(=O)(=O)c1ccccc1	4.3	i
O=C(CN1CCOCC1)NC[C@@H]1N[C@@H](CO)[C@@H]1c1ccc(-c2ccccc2)cc1	1.2	i
C[C@@H]1CCCCO[C@@H](CN(C)C(=O)Nc2ccccc2)[C@H](C)CN([C@H](C)CO)C(=O)c2cc(NC(=O)CCC(F)(F)F)ccc2O1	-1.8	i
COC(=O)c1ccc([C@@H]2C=C(C(=O)N3CCN(Cc4ccc5c(c4)OCO5)CC3)O[C@H](OCc3ccc(CO)cc3)C2)cc1	2.3	i
CCCNC(=O)C[C@@H]1CC[C@H]2[C@@H](COc3ccc(NC(=O)c4cccc(F)c4)cc3C(=O)N2C)O1	-1.4	i
CCS(=O)(=O)N1CC2(CN(C(=O)c3ccc(F)cc3)[C@H](CO)c3[nH]c4cc(OC)ccc4c32)C1	-11.5	i
O=C(NCc1ccccc1)[C@H]1CCCN1C(=O)[C@H]1CCCN1C(=O)c1ccccc1	-1.9	i
C[C@@H]1CN([C@@H](C)CO)C(=O)c2cccc(NC(=O)Nc3ccc(C(F)(F)F)cc3)c2O[C@H]1CN(C)Cc1ccc(C(F)(F)F)cc1	-1.9	i
O=C(NC1CCCC1)N[C@H]1C=C[C@H](CC(=O)N2CCOCC2)O[C@H]1CO	1.8	i
C[C@H](CO)N1C[C@H](C)[C@@H](CN(C)Cc2ccc(C(F)(F)F)cc2)Oc2ccc(NS(C)(=O)=O)cc2CC1=O	4.4	i

3 entries already listed, sorted by the number in AF4-AF9 inh, high to low.
canonical_smiles	AF4-AF9 inh	FGF22 binding
COc1cccc(-c2ccc3c(c2)[C@@H]2[C@@H](CCN2C(=O)c2cccc(F)c2)[C@H](CO)N3)c1	0.7	i
CCCNC(=O)C[C@@H]1CC[C@H]2[C@@H](COc3ccc(NC(=O)c4cccc(F)c4)cc3C(=O)N2C)O1	-1.4	i
O=C(C[C@@H]1CC[C@@H]2[C@H](COC[C@@H](O)CN2S(=O)(=O)c2cccc(F)c2)O1)NCCCN1CCOCC1	-1.6	i

Later entries:
canonical_smiles	AF4-AF9 inh	FGF22 binding
O=C(C[C@H]1CC[C@H]2[C@@H](COC[C@H](O)CN2C(=O)c2cnccn2)O1)NCc1ccc(Oc2ccccc2)cc1	-1.5	i
CCCC#Cc1ccc2c(c1)O[C@H](CN(C)CC1CCOCC1)[C@@H](C)CN([C@@H](C)CO)S2(=O)=O	7.8	i
Cc1ccc(S(=O)(=O)Nc2ccc3c(c2)C(=O)N([C@@H](C)CO)C[C@@H](C)[C@H](CN(C)Cc2ccc(C(=O)Nc4ccccc4N)cc2)O3)cc1	-1.3	i
CCS(=O)(=O)N1[C@H](C#N)[C@@H](c2ccc(C#Cc3ccccc3F)cc2)[C@@H]1CO	0.5	i
O=C(C[C@H]1C=C[C@H](NC(=O)Cc2ccccn2)[C@H](CO)O1)NCCCN1CCOCC1	0.0	i
N#C[C@H]1[C@@H](c2ccc(-c3ccccc3F)cc2)[C@@H](CO)N1C(=O)c1ccccn1	-1.2	i
C[C@H]1CN([C@@H](C)CO)C(=O)c2cc(C#CCN(C)C)cnc2O[C@H]1CN(C)C(=O)NC1CCCC1	-1.9	i
CCCNC(=O)N(C)C[C@@H]1Oc2ncc(/C=C/c3ccccc3)cc2C(=O)N([C@@H](C)CO)C[C@H]1C	-11.3	i
N#C[C@H]1[C@@H](c2ccccc2)[C@@H](CO)N1S(=O)(=O)c1ccc(F)cc1	-3.0	i
C[C@@H]1CN([C@@H](C)CO)C(=O)Cc2cc(NC(=O)Nc3ccccc3)ccc2O[C@@H]1CN(C)C(=O)Nc1ccc(F)cc1	-0.1	i
C/C=C/c1ccc([C@H]2[C@@H](CO)N[C@@H]2CN(CC)C(=O)CN2CCOCC2)cc1	1.6	i
C[C@H]1CN([C@@H](C)CO)C(=O)c2ccccc2-c2ccccc2CO[C@H]1CN(C)C(=O)Nc1cccc(F)c1	-4.0	i
CCCNC(=O)N[C@@H]1CC[C@@H](CCn2cc(C3CCCC3)nn2)O[C@H]1CO	-1.0	i
CC(C)C#Cc1ccc([C@H]2[C@@H](CO)N3CCCCN(C(=O)c4ccc(F)cc4)C[C@H]23)cc1	7.3	i
Cc1nn(C)cc1NC(=O)C[C@@H]1CC[C@H]2[C@H](COc3ccc(NC(=O)c4cccc(F)c4)cc3C(=O)N2C)O1	1.3	i
CC(C)(C)S(=O)N1Cc2cc(C(=O)NCc3ccc4c(c3)OCO4)nc(-c3cccc(C#CCC4CCCC4)c3)c2[C@H]1CCO (stereo not given in full)	-1.7	i
C[C@H](CO)N1C[C@H](C)[C@@H](CN(C)C)Oc2ncc(C#CC3CC3)cc2C1=O	-2.5	i
CCCN(C)C[C@H]1Oc2cc(-c3ccc(F)cc3)ccc2S(=O)(=O)N([C@H](C)CO)C[C@H]1C	2.9	i
COc1ccc(NC(=O)Nc2ccc3c(c2)C(=O)N([C@H](C)CO)C[C@@H](C)[C@@H](CN(C)C(=O)Cc2ccccc2)OCCCC[C@H](C)O3)cc1	2.6	i
COC(=O)C[C@H]1CC[C@H]2[C@@H](COc3ccc(NC(=O)Nc4ccccc4C)cc3C(=O)N2C)O1	-0.6	i
COC(=O)[C@]12C[C@H](CC(=O)NCCC(C)C)C(=O)N(Cc3ccc4c(c3)OCO4)C1=C[C@H](COCc1ccccc1)O[C@@H]2C	-2.1	i
C=CCCN1[C@@H](Cc2ccccc2)COc2ccccc2S1(=O)=O	8.4	i
CC(C)NC(=O)N1C[C@H]2[C@@H](c3ccccc31)[C@H](CO)N2C(=O)c1ccccc1F	-2.3	i
C[C@@H]1CN([C@H](C)CO)C(=O)c2c(c3ccccc3n2C)-c2ccccc2CO[C@@H]1CN(C)Cc1cccc2c1OCCCO2	14.5	i
CCC(=O)Nc1ccc2c(c1)C(=O)N(C)[C@H]1CC[C@H](CC(=O)NCCc3ccccc3)O[C@H]1CO2	0.6	i
C[C@H]1CN([C@@H](C)CO)C(=O)c2cc(NS(=O)(=O)c3ccc(F)cc3)ccc2O[C@@H]1CN(C)Cc1ccc2c(c1)OCO2	0.5	i
CN1C(=O)c2cc(NC(=O)C3CCOCC3)ccc2OC[C@H]2O[C@H](CC(=O)NCC3CCCCC3)CC[C@H]21	-6.6	i
Cc1noc(C)c1NC(=O)N(C)C[C@H]1Oc2ccc(NC(=O)c3ccncc3)cc2C(=O)N([C@@H](C)CO)C[C@H]1C	0.2	i
C[C@@H]1CN([C@H](C)CO)S(=O)(=O)c2ccc(C3=CCCCC3)cc2O[C@@H]1CN(C)C(=O)Cc1cccnc1	4.8	i

Record cards, as listed above:
Record of CCC(=O)Nc1ccc2c(c1)C(=O)N(C)[C@H]1CC[C@H](CC(=O)NCCc3ccccc3)O[C@H]1CO2 → AF4-AF9 inh: 0.6; FGF22 binding: i
Record of C[C@@H]1CN([C@H](C)CO)S(=O)(=O)c2ccc(C3=CCCCC3)cc2O[C@@H]1CN(C)C(=O)Cc1cccnc1 → AF4-AF9 inh: 4.8; FGF22 binding: i

Compound activity (PubChem)

These rows are one share of the data. The share of hits here may be higher or lower than overall.
